Source: PubChem BioAssay
Choline anaer gr: growth inhibitors of anaerobic choline-fed gram-negatives, minimal medium, absorbance. Gram-negative bacterium anaerobic choline minimal medium; stronger effect = lower value; many inactives read as strong as hits in the columns shown. calls only. hit rate 0.2% among 55,000. AID 1963822, 2024;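 active means growth z-score on choline under -2 at 7 or 20 h with little or no fall on glycerol, limits in tiers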;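 further: stock transfer was 300 nL into about 50 µL; the organism is E. coli; final concentration not given here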
Choline anaer gr early: recorded beside Choline anaer gr, whose call it bears; z-score; measured here: choline growth z-score, timepoint 1;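 score of optical density at 7 h as mean of two plates; lower means less growth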
* = called active by the depositor; i = inactive; & = joins results of further samples. Only part of the results is shown. The share of hits here may be higher or lower than overall.

SMILES	Choline anaer gr	Choline anaer gr early
CCCc1nc(C(C)(C)O)c(C(=O)O)n1Cc1ccc(-c2ccccc2-c2nn[nH]n2)cc1	i	0.61
CCN(CC)CCCNC(=O)c1nnc(-c2ccc(S(=O)(=O)N3CCC(C)CC3)cc2)o1	i	-1.6
Cc1ccccc1Nc1c(-c2ccc(N(C)C)cc2)nc2ncccn12	i	1.3
Cc1cc2c(F)c(Oc3ncnn4cc(OCC(C)OC(=O)C(C)N)c(C)c34)ccc2[nH]1 (configuration not stated)	i	-0.87
COc1ccc([C@H]2CNC(=O)C2)cc1OC1CCCC1	i	0.85
COc1cc2ncnc(Nc3cccc(Cl)c3)c2cc1OC	i	0.47&0.54
O=C(NCCC1=CCCCC1)C1CCCN(c2ncnc3c2oc2ccccc23)C1 (configuration not stated)	i	0.03
O=C(O)CCC/C=C\C[C@@H]1[C@@H](/C=C/C(=O)CCc2ccccc2)[C@H](O)C[C@@H]1O	i	1.4
CC1Cc2ccccc2N1NC(=O)c1ccc(Cl)c(S(N)(=O)=O)c1 (configuration not stated)	i	0.75&0.58
N#Cc1ccc(C(c2ccc(C#N)cc2)n2cncn2)cc1	i	-0.04&0.52&-0.01&0.65
Cc1cc(C)c2c(c1)[C@@H](N(Cc1cc(C(F)(F)F)cc(C(F)(F)F)c1)c1nnn(C)n1)CCCN2CC1CCC(C(=O)O)CC1 (some centres not stated)	i	0.6
N[C@@H](Cc1c[nH]c2ccc(O)cc12)C(=O)O	i	-3.5

In another format: 2 of the compounds above.
canonical_smiles | Choline anaer gr | Choline anaer gr early
COc1cc2ncnc(Nc3cccc(Cl)c3)c2cc1OC | i | 0.47&0.54
N[C@@H](Cc1c[nH]c2ccc(O)cc12)C(=O)O | i | -3.5

New compounds follow
SMILES	Choline anaer gr	Choline anaer gr early
CC(=O)O[C@]1(C(C)=O)CC[C@H]2[C@@H]3C=C(Cl)C4=CC(=O)C5CC5[C@]4(C)[C@H]3CC[C@@]21C (some centres not stated)	i	0.58
Cc1ccc(Cn2nc3c(S(=O)(=O)N4CCCCCC4)cccn3c2=O)cc1	i	1.5
CCCS(=O)(=O)c1nc2ccc(NS(=O)(=O)c3cc(C)cc(C)c3)cc2s1	i	0.92
COC(=O)c1sccc1S(=O)(=O)Nc1ccc(Nc2ccccc2)cc1OC	i	0.7
CCOC(=O)[C@H](CCc1ccccc1)N[C@@H](C)C(=O)N1Cc2ccccc2C[C@H]1C(=O)O	i	0.32&0.92
C/C=C/C(=O)N(CC)c1ccccc1C	i	-0.67&-0.15
COc1ccc(-c2cc(=O)c3c(O)cc(O[C@@H]4O[C@H](CO[C@@H]5O[C@@H](C)[C@H](O)[C@@H](O)[C@H]5O)[C@@H](O)[C@H](O)[C@H]4O)cc3o2)cc1O	i	0.23
CC[C@H](NC(C)C)[C@H](O)c1ccc(O)c2[nH]c(=O)ccc12	i	0.99&-0.09
COc1cc2ncn(-c3cc(OCc4ccccc4C(F)(F)F)c(C(N)=O)s3)c2cc1OC	i	0.8
O=C(O)CCC(=O)c1ccc(-c2ccccc2)cc1	i	0.78&0.45
CCCCNc1ccc(C(=O)OCCN(C)C)cc1	i	-0.11&0.02&-0.19
CCCS(=O)(=O)c1nc2ccc(NS(=O)(=O)c3ccc(C)cc3C)cc2s1	i	-0.06
CCN(CC)CCOC(=O)c1ccc(N)cc1	i	-0.21&0.07&-0.6
Cc1ccc(-n2ccn3c(CCC(=O)NCCc4c[nH]c5ccccc45)nnc3c2=O)cc1C	i	0.8
COc1ccc(C2CNC(=O)C2)cc1OC1CCCC1 (configuration not stated)	i	0.87&0.38&0.79&-1.3&0.26&0.28
COc1ccc(-c2noc(Cc3nc(-c4ccc(C)c(C)c4)cs3)n2)cc1	i	1.6
c1cncc(-c2nc(-c3ccnc(N4CCCC4)c3)no2)c1	i	0.22
Nc1ccc(-c2cccc3c(=O)cc(N4CCOCC4)oc23)cc1	i	0.4
NC(=O)C1(N2CCCCC2)CCN(CCCC(=O)c2ccc(F)cc2)CC1	i	0.47
C=CCn1c(=O)n([C@@H]2O[C@H](CO)[C@@H](O)[C@H]2O)c2nc(N)[nH]c(=O)c21	i	0.26
CCN(CC)CCNC(C(=O)OCCC(C)C)c1ccccc1 (configuration not stated)	i	0.2&-0.22
O=S(=O)(c1ccc2nc(N3CCN(C4CCCCC4)CC3)ccc2c1)N1CCCCC1	i	-0.04
Cc1ccc(=O)n(-c2ccccc2)c1	i	1.3&-0.47&0.07
CCc1ccc(CCOc2ccc(CC3SC(=O)NC3=O)cc2)nc1 (configuration not stated)	i	1.7&-0.6&1.2&1.2&0.97

Copied from the list.
For Choline anaer gr early, CCN(CC)CCNC(C(=O)OCCC(C)C)c1ccccc1 (configuration not stated) reads 0.2&-0.22
For Choline anaer gr early, c1cncc(-c2nc(-c3ccnc(N4CCCC4)c3)no2)c1 reads 0.22
For Choline anaer gr early, Cc1ccc(=O)n(-c2ccccc2)c1 reads 1.3&-0.47&0.07

A second format for 27 compounds above.
molecule,Choline anaer gr,Choline anaer gr early
O=C(NCCC1=CCCCC1)C1CCCN(c2ncnc3c2oc2ccccc23)C1 (configuration not stated),i,0.03
O=C(O)CCC/C=C\C[C@@H]1[C@@H](/C=C/C(=O)CCc2ccccc2)[C@H](O)C[C@@H]1O,i,1.4
CC1Cc2ccccc2N1NC(=O)c1ccc(Cl)c(S(N)(=O)=O)c1 (configuration not stated),i,0.75&0.58
N#Cc1ccc(C(c2ccc(C#N)cc2)n2cncn2)cc1,i,-0.04&0.52&-0.01&0.65
Cc1cc(C)c2c(c1)[C@@H](N(Cc1cc(C(F)(F)F)cc(C(F)(F)F)c1)c1nnn(C)n1)CCCN2CC1CCC(C(=O)O)CC1 (some centres not stated),i,0.6
N[C@@H](Cc1c[nH]c2ccc(O)cc12)C(=O)O,i,-3.5
CC(=O)O[C@]1(C(C)=O)CC[C@H]2[C@@H]3C=C(Cl)C4=CC(=O)C5CC5[C@]4(C)[C@H]3CC[C@@]21C (some centres not stated),i,0.58
Cc1ccc(Cn2nc3c(S(=O)(=O)N4CCCCCC4)cccn3c2=O)cc1,i,1.5
CCCS(=O)(=O)c1nc2ccc(NS(=O)(=O)c3cc(C)cc(C)c3)cc2s1,i,0.92
COC(=O)c1sccc1S(=O)(=O)Nc1ccc(Nc2ccccc2)cc1OC,i,0.7
CCOC(=O)[C@H](CCc1ccccc1)N[C@@H](C)C(=O)N1Cc2ccccc2C[C@H]1C(=O)O,i,0.32&0.92
C/C=C/C(=O)N(CC)c1ccccc1C,i,-0.67&-0.15
COc1ccc(-c2cc(=O)c3c(O)cc(O[C@@H]4O[C@H](CO[C@@H]5O[C@@H](C)[C@H](O)[C@@H](O)[C@H]5O)[C@@H](O)[C@H](O)[C@H]4O)cc3o2)cc1O,i,0.23
CC[C@H](NC(C)C)[C@H](O)c1ccc(O)c2[nH]c(=O)ccc12,i,0.99&-0.09
COc1cc2ncn(-c3cc(OCc4ccccc4C(F)(F)F)c(C(N)=O)s3)c2cc1OC,i,0.8
O=C(O)CCC(=O)c1ccc(-c2ccccc2)cc1,i,0.78&0.45
CCCCNc1ccc(C(=O)OCCN(C)C)cc1,i,-0.11&0.02&-0.19
CCCS(=O)(=O)c1nc2ccc(NS(=O)(=O)c3ccc(C)cc3C)cc2s1,i,-0.06
CCN(CC)CCOC(=O)c1ccc(N)cc1,i,-0.21&0.07&-0.6
Cc1ccc(-n2ccn3c(CCC(=O)NCCc4c[nH]c5ccccc45)nnc3c2=O)cc1C,i,0.8
COc1ccc(C2CNC(=O)C2)cc1OC1CCCC1 (configuration not stated),i,0.87&0.38&0.79&-1.3&0.26&0.28
COc1ccc(-c2noc(Cc3nc(-c4ccc(C)c(C)c4)cs3)n2)cc1,i,1.6
c1cncc(-c2nc(-c3ccnc(N4CCCC4)c3)no2)c1,i,0.22
Nc1ccc(-c2cccc3c(=O)cc(N4CCOCC4)oc23)cc1,i,0.4
NC(=O)C1(N2CCCCC2)CCN(CCCC(=O)c2ccc(F)cc2)CC1,i,0.47
C=CCn1c(=O)n([C@@H]2O[C@H](CO)[C@@H](O)[C@H]2O)c2nc(N)[nH]c(=O)c21,i,0.26
CCN(CC)CCNC(C(=O)OCCC(C)C)c1ccccc1 (configuration not stated),i,0.2&-0.22

(more compounds)
SMILES	Choline anaer gr	Choline anaer gr early
CCCCCCCCCCCCCCC[C@H](O)[C@@H](N)CO	i	-0.54
CC12CC3CC(C)(C1)CC(N)(C3)C2	i	0.52&0.38&0.66
CC(=O)CCCCn1c(=O)c2c(ncn2C)n(C)c1=O	i	0.62&-1&-0.04&0.15
Cc1ccc(-c2noc(C3CCCN3S(=O)(=O)c3ccc4c(c3)CCC4)n2)cc1 (configuration not stated)	i	1.7
NC1CCN(c2nc3c(cc2F)c(=O)c(C(=O)O)cn3-c2ccc(F)cc2F)C1 (configuration not stated)	i	-2.6&-1.5&-2
O=C(O)c1cccnc1Nc1cccc(C(F)(F)F)c1	i	0.96&1.2&0.43&0.09
COc1nccc(-c2c(-c3ccc(F)cc3)ncn2C2CCC(O)CC2)n1 (configuration not stated)	i	-1.6
CCCOc1ccc(C2NCCc3c2[nH]c2ccccc32)cc1OC (configuration not stated)	i	0.26
CCn1cc(C(=O)O)c(=O)c2cnc(N3CCNCC3)nc21	i	-2.5
CN(C1CCCCC1)S(=O)(=O)N1CCCC(C(=O)NCc2ccc3c(c2)OCO3)C1 (configuration not stated)	i	-0.3
CCn1nc(C)n2cc(S(=O)(=O)N3CCC(Cc4ccccc4)CC3)cc2c1=O	i	0.52
CC(C)COC(=O)c1ccc(N)cc1	i	-0.17
CN(CCNC(=O)C1CCc2nc(N3CCOCC3)ncc2C1)C1CCCCC1 (configuration not stated)	i	-0.12
CN(C)CCCC1(c2ccc(F)cc2)OCc2cc(C#N)ccc21 (configuration not stated)	i	0.41&0.21&0.37&-0.3&0.54
CC(=O)Nc1ccc(CC(=O)O)cc1	i	0.59&0.74
O=S(=O)(c1ccccc1)c1[nH]c(-c2ccccc2)nc1SCc1ccncc1	i	-1.4
CCCCNc1ccc(C(=O)OCCOCCOCCOCCOCCOCCOCCOCCOCCOC)cc1	i	0.55
NOCC(=O)O	i	-0.09
COc1ccc(-c2cc(=S)ss2)cc1	i	0.43&0.57
c1cnc2cc3c(cc2n1)C1CNCC3C1	i	0.84
O=c1n(CCOc2ccccc2)nc2c(S(=O)(=O)N3CCCC3)cccn12	i	-0.63
Cc1cc(C(=O)N2CCCCC2)c2c(=O)n(CC(=O)Nc3ccc(F)cc3F)c(=O)n(C)c2n1	i	0.69
c1cc2nnc(C3CCC3)n2nc1N1CCCC1	i	0.07
O=C(Nc1nnc(SCc2nnc(-c3ccccc3)o2)s1)c1cccc(Cl)c1	i	-0.09
Oc1ccc(C2CNCCc3c2cc(O)c(O)c3Cl)cc1 (configuration not stated)	i	1.1&-1.3&0.8&-0.13&0.25&-0.86
O=C(NCc1noc(C2CCCC2)n1)c1coc(C2CC2)n1	i	0.44
C[N+]1(C)CCC(=C(c2ccccc2)c2ccccc2)CC1	i	0.14&0.44
C1COC(NC(C2CC2)C2CC2)=N1	i	1.1&0.56&0.65
Cn1c(=O)c2nc(SCCC(=O)Nc3ccc(N4CCOCC4)cc3)n(C)c2n(C)c1=O	i	0.56
CNCCCN1c2ccccc2CCc2ccccc21	i	-0.53&-1.2&0.75
Cc1ccc(N(CC2=NCCN2)c2cccc(O)c2)cc1	i	-0.46&0.1&0.59&0.1
